NPYLR7 ag: mosquito NPYLR7 agonism | 0.15% of 270,000 active | HEK293T NPYLR7/Galpha15, GCaMP6s calcium fluorescence | activation, % at 10 µM; in the data active means activation above about 40%;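 further: 0% = vehicle and 100% = reference agonist at the receptor; some compounds past the cut are filed as inactive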
NPYLR7 ag max-min: recorded beside NPYLR7 ag, whose call it bears; activation, %; measured here: Max-Min RFU normalised activation; some inactives read as strong as hits;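 span of the calcium signal over five minutes; 0% = vehicle and 100% = native peptide agonist; compound fluorescence can raise it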
* hit, by the source's call; & = joins results of further samples. Some of the compounds tested. The share of hits here may be higher or lower than overall.

| smiles | NPYLR7 ag | NPYLR7 ag max-min |
| --- | --- | --- |
| COC(=O)c1sc2nc(Cn3cc[n+](C)c3)[nH]c(=O)c2c1C | -1 | 5 |
| CCN(Cc1cc(C)[nH]n1)CC1CCCO1 (stereo not drawn) | 5 | -2 |
| O=S(=O)(c1cccc(Br)c1)N1CCN(Cc2nc(-c3ccccc3)no2)CC1 | 0 | 5 |
| O=C(O)COc1ccc(I)cc1 | -3 | -2 |
| CCc1ccc(C(=O)N2CCCC2C(=O)Nc2nnc(-c3cccc(Br)c3)s2)cc1 (stereo not drawn) | -4 | 0 |
| COc1cccc(-c2ccc3c(c2)COC2(CCN(C(=O)Cc4cc(OC)c(OC)c(OC)c4)CC2)O3)c1 | -15 | -19 |
| O=C(CSc1nnc(-c2ccccc2)n1-c1ccccc1)N/N=C\c1c(Cl)cccc1Cl | -6 | 3 |
| CCc1c(C)sc2nc(SCC(=O)Nc3ccc(F)cc3)n(C)c(=O)c12 | -4 | -5 |
| CN1CCCc2cc(C(=O)N3CCCC(N(C)Cc4ccccc4)C3)ccc21 (stereo not drawn) | 3 | -2 |
| CC1CCC(=NNc2cc(C(F)(F)F)ccc2Cl)CC1 (stereo not drawn) | 2 | 1 |
| CCc1nnc(NC(=O)CCc2ncc(-c3ccc(Cl)cc3)o2)s1 | 7 | 2 |
| CC1(C)C2CCC1(C)C(NC(=O)CCCN1CCOC1=O)C2 (stereo not drawn) | 10 | 12 |
| CCCC(=O)OCC(O)CN(Cc1nc2sc(C(=O)OCC)c(C)c2c(=O)[nH]1)Cc1ccco1 (stereo not drawn) | 11 | 8 |
| COc1cc2c(cc1OC)C(c1cccc(C(F)(F)F)c1)N(C(=O)c1cc(Cl)cc(Cl)c1)CC2 (stereo not drawn) | 28 | 12 |
| CN(C)c1ccc(NC(=O)Nc2ccc3c(c2)c(=O)n(C)n3Cc2ccccc2)cc1 | 0 | -2 |
| CC(O)(c1ccc(F)c(F)c1)c1nc(-c2cccc3cccnc23)cs1 (stereo not drawn) | 6 | 0 |
| CCCCCN(CC(=O)Nc1cc(-c2ccccc2)nn1-c1ccc(F)cc1)C(=O)c1ccccc1OC | 1 | 8 |
| CS(=O)(=O)N1CCC(NCCSc2cn[nH]n2)CC1 | 17 | 8 |
| O=C(NC1CCN(c2ccccc2C(=O)N2CCN(c3ccccn3)CC2)CC1)c1cccs1 | -3 | 7 |
| COc1cccc(Oc2cc(C)nc(SCc3c(F)cccc3F)n2)c1 | -4 | 2 |
| CCOc1ccc(N2CC(NC(=O)Nc3nc(C)cs3)CC2=O)cc1 (stereo not drawn) | 5 | 1 |
| Cc1nc(CN2CCN(C3CCC4(CCNCC4)CC3)CC2)no1 | 2 | 1 |
| CNc1nc2cnc(Nc3ccc(F)c(Cl)c3)cc2n1Cc1ccc(OC)c(OC)c1 | 9 | 5 |
| O=C(CSc1nc(=O)n(CCCO)c2c1CCC2)Nc1ccc2c(c1)OCO2 | -10 | -15 |
| CC(OC(=O)c1nccnc1N)c1cccnc1 (stereo not drawn) | 7 | 3 |
| Cc1cnc2n(c1=O)C(CC(=O)N1CCC(C(N)=O)CC1)CS2 (stereo not drawn) | -3 | -5 |
| C[C@@H]1[C@@H](NC(=O)[C@H](N)CCCCNC(=O)c2cccnc2)C[C@H]2C[C@@H]1C2(C)C | 2 | 2 |
| Cc1cccc(CO[C@]2(C(=O)NCC3CCCO3)CC(OCc3ccc(F)cc3)[C@@H]3OC(C)(C)O[C@@H]3C2)c1 (stereo partly drawn) | 8 | -5 |
| O=C(CSc1nc(=O)n(CCCO)c2c1CCCC2)N1CCN(c2ccccc2)CC1 | -8 | -19 |
| NC(=O)C1CN(S(=O)(=O)c2ccc(C3CCCCC3)cc2)CCO1 (stereo not drawn) | 1 | 3 |
| CCc1cccc(NC(=O)N2CCSC2c2ccc3c(c2)OCCO3)c1 (stereo not drawn) | 17 | 21 |
| COc1ccc(N2C(=O)c3ccccc3N(C)C2c2ccccn2)cc1 (stereo not drawn) | -3 | -5 |
| Cc1cc(N2CCCN(Cc3cnc(C4CCCCC4)nc3)CC2)ccn1 | -1 | -2 |
| Cc1ccccc1C1c2ccsc2CCN1C(=O)CN(CC1CCCO1)S(=O)(=O)/C=C/c1ccccc1 (stereo not drawn) | 11 | 11 |
| COc1ccc(OC)c(NC(=O)C(C)Nc2ccc3c(c2)OCO3)c1 (stereo not drawn) | 7 | 12 |
| N#CCc1cccc(C(=O)Nc2cc(F)cc(N3CCCC3)c2)c1 | 10 | 6 |
| C=CCOC(CN1CCN(S(=O)(=O)c2ccc(OC)c(OC)c2)CC1)c1cccc(OC)c1 (stereo not drawn) | -6 | 2 |
| CC1(C)C(N(O)C(=O)Nc2cccc3ccccc23)N(c2cccc3ccccc23)C(=O)N1CC(=O)O (stereo not drawn) | 3 | 3 |
| CCc1ccc(C(=O)N(CCC#N)CC2CCC2)o1 | 15 | 15 |
| CC(C)(C)NC(=S)N1CCn2cccc2C1c1ccc(F)cc1 (stereo not drawn) | 7 | 4 |
| CC1=C(C(=O)OCC(C)C)C(c2cc3c(cc2Br)OCO3)NC(=O)N1C (stereo not drawn) | -1 | -5 |
| CCOC(=O)c1nn(CCc2ccc(OC)cc2)c2c1CN(CCC(=O)OC)CC2 | 18 | 7 |
| CCc1ccc(CN(C)S(=O)(=O)NCc2ccccc2)nc1 | 6 | 5 |
| O=C1CN(c2ccccc2NC(=O)C2(c3cccs3)CCCC2)CCN1 | -5 | -5 |
| COc1ccc(CC2(CO)CCN(Cc3cccn3-c3ccc(Cl)cn3)CC2)cc1 | 13 | -4 |
| COCCN(CC(=O)N1CC(=O)N(c2ccc(Cl)cc2)C1)C(=O)COc1ccccc1 | -15 | -6 |
| O=c1nc(N2CCOCC2)nc(N2CCOCC2)[nH]1 | -2 | -4 |
| Clc1ccc(-c2nc(CN3CCC4CCCCC4C3)cs2)cc1 (stereo not drawn) | 5 | 2 |
| CCOC(=O)c1c(N=Cc2ccc(C)cc2O)sc2c1CCC2 | -5 | -11 |
| COc1cccc(/C=C2\SC(=Nc3ccccc3Cl)NC2=O)c1O | 17 | 0 |

Carrying on.
| smiles | NPYLR7 ag | NPYLR7 ag max-min |
| --- | --- | --- |
| N#Cc1ccc(Cl)cc1NC(=O)CN1CCc2ccccc2C1 | 3 | 1 |
| O=C(c1ccc(Br)o1)N1CCN(S(=O)(=O)c2cc3c4c(c2)CCN4C(=O)CC3)CC1 | -4 | 4 |
| CCCCn1c(N)c(N(C)CCOc2ccccc2F)c(=O)[nH]c1=O | -9 | -8 |
| Cn1nnnc1SCc1nnc(-c2cccs2)o1 | 4 | 2 |
| COc1cccc(C(=O)Nc2ccc(-n3cccn3)cc2C(F)(F)F)c1 | 21 | 61 |
| CCCN1CCC(C)(C(=O)Nc2ccccc2Oc2ccccc2)C1 (stereo not drawn) | 0 | -1 |
| O=C(NCC1CCCN(C(=O)CCC(F)(F)F)C1)c1cccc2ccccc12 (stereo not drawn) | 6 | 4 |
| Cc1ccc(CN(CCc2c[nH]c3ccccc23)C(=O)CN(C(C)C)S(=O)(=O)c2cccc3cccnc23)cc1 | -2 | 1 |
| CCC(NC(=O)c1csc2nc(-c3ccccc3C)cn12)c1ncnn1C (stereo not drawn) | 1 | 2 |
| COc1ccc(-c2ccc(=O)n(CC(=O)NCc3ccc(F)cc3)n2)cc1 | 8 | 1 |

An excerpt of these results, with two lines to a compound:
The line under a structure holds: NPYLR7 ag | NPYLR7 ag max-min
C=CCOC(CN1CCN(S(=O)(=O)c2ccc(OC)c(OC)c2)CC1)c1cccc(OC)c1 (stereo not drawn)
→ -6 | 2
CC1(C)C(N(O)C(=O)Nc2cccc3ccccc23)N(c2cccc3ccccc23)C(=O)N1CC(=O)O (stereo not drawn)
→ 3 | 3
CCc1ccc(C(=O)N(CCC#N)CC2CCC2)o1
→ 15 | 15
CC(C)(C)NC(=S)N1CCn2cccc2C1c1ccc(F)cc1 (stereo not drawn)
→ 7 | 4
CC1=C(C(=O)OCC(C)C)C(c2cc3c(cc2Br)OCO3)NC(=O)N1C (stereo not drawn)
→ -1 | -5
CCOC(=O)c1nn(CCc2ccc(OC)cc2)c2c1CN(CCC(=O)OC)CC2
→ 18 | 7
CCc1ccc(CN(C)S(=O)(=O)NCc2ccccc2)nc1
→ 6 | 5
O=C1CN(c2ccccc2NC(=O)C2(c3cccs3)CCCC2)CCN1
→ -5 | -5
COc1ccc(CC2(CO)CCN(Cc3cccn3-c3ccc(Cl)cn3)CC2)cc1
→ 13 | -4
COCCN(CC(=O)N1CC(=O)N(c2ccc(Cl)cc2)C1)C(=O)COc1ccccc1
→ -15 | -6
O=c1nc(N2CCOCC2)nc(N2CCOCC2)[nH]1
→ -2 | -4
Clc1ccc(-c2nc(CN3CCC4CCCCC4C3)cs2)cc1 (stereo not drawn)
→ 5 | 2
CCOC(=O)c1c(N=Cc2ccc(C)cc2O)sc2c1CCC2
→ -5 | -11
COc1cccc(/C=C2\SC(=Nc3ccccc3Cl)NC2=O)c1O
→ 17 | 0
N#Cc1ccc(Cl)cc1NC(=O)CN1CCc2ccccc2C1
→ 3 | 1
O=C(c1ccc(Br)o1)N1CCN(S(=O)(=O)c2cc3c4c(c2)CCN4C(=O)CC3)CC1
→ -4 | 4
CCCCn1c(N)c(N(C)CCOc2ccccc2F)c(=O)[nH]c1=O
→ -9 | -8
Cn1nnnc1SCc1nnc(-c2cccs2)o1
→ 4 | 2
COc1cccc(C(=O)Nc2ccc(-n3cccn3)cc2C(F)(F)F)c1
→ 21 | 61
CCCN1CCC(C)(C(=O)Nc2ccccc2Oc2ccccc2)C1 (stereo not drawn)
→ 0 | -1
O=C(NCC1CCCN(C(=O)CCC(F)(F)F)C1)c1cccc2ccccc12 (stereo not drawn)
→ 6 | 4

Continued.
| smiles | NPYLR7 ag | NPYLR7 ag max-min |
| --- | --- | --- |
| Cc1ccc(NC(=O)c2csc(CSc3nnc(-c4cccnc4)n3-c3ccccc3C)n2)cc1 | 19 | 15 |
| Cn1nnnc1SCCNC(=O)c1scc2c1OCCO2 | 6 | 4 |
| CC(=O)c1ccc(N2CCN(c3nc(-c4ccc(Oc5ccccc5)cc4)nc4ccccc34)CC2)cc1 | 3 | 6 |
| O=C(CCN1CCN(c2ccccc2)CC1)NNC(=O)c1ccc2c(c1)OCCO2 | 6 | 0 |
| COc1cccc(N(CC(=O)Nc2ccccc2C(C)C)C2=NC(C)(C)CS2)c1 | 2 | -1 |
| Fc1ccc(C=C2CCCC3C2=Nc2ncnn2C3c2ccc(F)cc2)cc1 (stereo not drawn) | 20 | 8 |
| COCc1c(Br)c(C)nc(OCC(=O)N/N=C\c2ccc([N+](=O)[O-])cc2)c1C#N | -5 | -6 |
| Nc1c(Br)cc(Br)c2cccnc12 | -2 | -3 |
| CCOc1ccccc1NC(=O)Cn1c(=O)c(CNc2ccccc2)cc2cc3c(cc21)OCCO3 | 4 | 10 |
| O=[N+]([O-])c1ccc(Br)c2ccncc12 | 2 | 10 |

Of the compounds above, these contain a cyano group.
| smiles | NPYLR7 ag | NPYLR7 ag max-min |
| --- | --- | --- |
| N#CCc1cccc(C(=O)Nc2cc(F)cc(N3CCCC3)c2)c1 | 10 | 6 |
| CCc1ccc(C(=O)N(CCC#N)CC2CCC2)o1 | 15 | 15 |
| N#Cc1ccc(Cl)cc1NC(=O)CN1CCc2ccccc2C1 | 3 | 1 |
| COCc1c(Br)c(C)nc(OCC(=O)N/N=C\c2ccc([N+](=O)[O-])cc2)c1C#N | -5 | -6 |

(next part)
| smiles | NPYLR7 ag | NPYLR7 ag max-min |
| --- | --- | --- |
| CCCOC(=O)C1=C(C)N(CC)C(=O)NC1c1ccccc1Cl (stereo not drawn) | -4 | -7 |
| CNS(=O)(=O)c1ccc(Br)cc1 | 5 | 3 |
| CCOc1ccc2nc(N(CCCn3ccnc3)C(=O)/C=C/c3cccs3)sc2c1 | -13 | -17 |
| Fc1cc(Cl)ccc1CSc1nc2ncccc2[nH]1 | 7 | 4 |
| Cc1ccc(CN(Cc2ccc(F)cc2)C(=O)CN(CC2CC2)C(=O)c2ccccc2C)s1 | -2 | 11 |
| O=C(NCCOc1ccc2nnc(-c3ccccc3)n2n1)c1ccco1 | -10 | -15 |
| Cc1cc(C)cc(C(=O)NCCn2nc(-c3ccco3)ccc2=O)c1 | -1 | -3 |
| Cc1ccc(N2C(=O)CC(NCc3ccc(F)cc3)C2=O)cc1 (stereo not drawn) | -10 | -13 |
| CN1CCC(Cc2noc(-c3ccc(-c4ccccc4)[nH]3)n2)CC1 | -4 | -6 |
| CN1CCCN(c2nnc(C(=O)NCCCc3ccccc3)c3ccccc23)CC1 | 5 | 1 |
| CC(=O)NCCCNC(=O)[C@H]1CCCN1C(=O)CCc1ccccc1 | 14 | 23 |
| CN(C)c1nc2c(c(=O)[nH]1)CCN(C(=O)c1ccc(C3CCCN3)s1)C2 (stereo not drawn) | -2 | -9 |
| Cc1ccccc1N1CCN(C2CCCN(C(=O)c3snnc3C)C2)CC1 (stereo not drawn) | 5&3 | 2&0 |
| CC(=O)Oc1ccc(Cn2c(C)c(C(=O)NCc3ccccn3)sc2=O)cc1 | -6 | -5 |
| O=C(CCCCC1CCSS1)N1CCC(O)(Cc2ccccc2)CC1 (stereo not drawn) | 2 | -2 |
| Cc1cc2nc(COCCOCCO)[nH]c2cc1C | -1 | -2 |
| Cc1nnc2sc(SCc3ccc(Cl)cc3)nn12 | 0 | -5 |
| Cc1cc(C)c(C2NC(=O)c3cn[nH]c3N2)cc1C (stereo not drawn) | 4 | 2 |
| CCSc1ccc(NC(=O)N(C)Cc2ccco2)cn1 | 11 | 5 |
| N#CCNC(=O)c1cc2nc(-c3cccs3)cc(C(F)(F)F)n2n1 | -14 | -21 |
| Cn1c(NC(=O)c2cccc(Br)c2)cc(=O)n(C)c1=O | 8 | 10 |
